# AI-2 QS mod: modulators of Vibrio harveyi AI-2 quorum sensing system | Vibrio harveyi JMH597 AI-2 luminescence/OD600 ratio, 9 h; hits give low values; strain lacks LuxN and CqsS sensors; 0 = neutral-control median | activity change, % at 7.5 µM | 300,000 tested, 0.4% active | AID 2094; in the data active = activity change below about -75%, passing the limit was not always enough; inconclusive = no clear call, values can overlap the other calls;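 also: luminescence divided by OD600 gain over 9 h not by final OD600 alone; inactives centre near 13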
# HSP90 inh: inhibitors of HSP90 luciferase refolding in rabbit reticulocyte lysate; luciferase refolding luminescence, 3 h; inhibition, % at 5.6 µM; 290,000 tested, 0.91% active;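 active = inhibition above the screen-wide mean plus 3 SD, computed separately per campaign, cut at about 16% in these data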;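 also: 0% = DMSO wells and 100% = 60 µM geldanamycin wells; inhibitors lower the luminescence because luciferase stays unfolded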
# HSF1 inh: HSF1 inhibition. NIH3T3-HGL HSE-luciferase, MG132-induced, luminescence 8 h; hits give low values. activity change, negative = inhibition, % at 7.5 µM (by protocol). 300,000 tested, 0.77% active. AID 2098;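 active = more than half of replicate wells show activity change below -50%, luminescence cut by over half; inconclusive = some wells, but at most half, below -50%; inactive = no replicate well below -50%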;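 also: luciferase reports HSF-1 transcriptional activity via heat shock element; 0% = median of DMSO wells and -100% = zero luminescence signal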
# HSF-1 act: increases HSF-1 driven luciferase reporter signal; 300,000 tested, 1.7% active; activation, % at 9 µM; AID 504408; NIH3T3-HGL HSF-1 luciferase reporter, MG132, 8 h; 100% = twice DMSO control signal;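 active = mean replicate activation of at least 50% with a set share of replicates each reaching 50%; inconclusive = only one of those two conditions met; inactive = mean below 50% and too few replicates reaching it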;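 also: 0% = median of the neutral control wells and 100% = twice that signal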
# GSK3A inh: inhibitors of human GSK-3 alpha kinase; 320,000 tested, 0.1% active; inhibition, % at 10 µM; ADP-Glo luminescence, 60 min;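 in the data active = inhibition above about 50%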;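 also: GST-tagged GSK-3 alpha with peptide substrate and 25 µM ATP; 0% = DMSO neutral wells and 100% = GW8510 positive control wells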
# Target sequence (P49840 whole entry, looked up): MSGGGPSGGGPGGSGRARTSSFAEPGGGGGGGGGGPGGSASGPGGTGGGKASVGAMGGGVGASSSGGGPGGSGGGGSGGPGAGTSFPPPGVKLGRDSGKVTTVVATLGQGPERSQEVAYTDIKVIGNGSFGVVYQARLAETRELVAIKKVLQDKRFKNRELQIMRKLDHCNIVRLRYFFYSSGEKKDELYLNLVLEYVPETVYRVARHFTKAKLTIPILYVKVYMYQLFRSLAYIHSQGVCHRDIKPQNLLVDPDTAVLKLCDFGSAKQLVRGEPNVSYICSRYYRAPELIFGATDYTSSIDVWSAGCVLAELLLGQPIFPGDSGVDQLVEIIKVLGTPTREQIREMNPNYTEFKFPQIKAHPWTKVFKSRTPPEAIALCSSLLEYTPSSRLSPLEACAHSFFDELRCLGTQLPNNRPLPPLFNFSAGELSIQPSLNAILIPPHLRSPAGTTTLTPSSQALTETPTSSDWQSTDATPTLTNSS
# KLF5 inhibitor: kruppel-like factor 5 inhibition; 290,000 tested, 0.23% active; DLD-1 KLF5 promoter-luciferase reporter, luminescence; inhibition, % at 5 µM;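 active = inhibition above a per-plate limit of that plate's mean compound inhibition plus 3 SD, cut at about 60% in these data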;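 also: 0% = DMSO wells and 100% = LY294002 at 200 µM; higher means less KLF5 promoter-driven luciferase light; inactives centre near -14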
# GSK3beta inhib: inhibitors of human GSK3beta kinase | GST-GSK3beta kinase, ADP-Glo luminescence, 60 min; hits give low values | activity score (negative = inhibition), % at 10 µM | 300,000 tested, 0.038% active;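 active = more than half of replicate wells score below -50%, meaning over 50% inhibition versus plate controls; inconclusive = some replicates but at most half score below -50%; inactive = no replicate scores below -50%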;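 also: 0% = median DMSO wells and -100% = median GW8510 positive control wells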
# Target sequence (P49841 whole entry, looked up): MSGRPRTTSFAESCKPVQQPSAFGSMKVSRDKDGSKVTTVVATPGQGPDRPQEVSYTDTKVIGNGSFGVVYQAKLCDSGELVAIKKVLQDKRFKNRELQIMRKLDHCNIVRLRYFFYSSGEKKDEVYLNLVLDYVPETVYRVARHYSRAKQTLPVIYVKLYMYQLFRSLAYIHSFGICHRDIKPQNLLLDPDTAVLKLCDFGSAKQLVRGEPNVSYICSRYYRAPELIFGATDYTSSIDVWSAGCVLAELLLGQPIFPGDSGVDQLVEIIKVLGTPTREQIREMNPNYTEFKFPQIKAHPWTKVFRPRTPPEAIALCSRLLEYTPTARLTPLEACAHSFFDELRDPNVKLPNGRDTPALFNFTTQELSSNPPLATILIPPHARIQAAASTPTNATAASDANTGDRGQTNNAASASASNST
#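 Test system – GST-tagged human GSK3beta kinase, cell-free · Incubation – 60 min enzyme reaction, room temperature · Signal – ADP-Glo luminescence · Also added – peptide substrate and ATP at 25 µM · Controls – DMSO neutral wells and GW8510 at 20 µM as positive · Buffer or medium – Tris/MgCl2 kinase buffer · Measure – Luminescence-derived activity versus plate DMSO and GW8510 wells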
# aSyn UTR inh: MLPCN primary screen, SNCA 5' untranslated region | 300,000 tested, 0.82% active | alpha-synuclein 5'UTR reporter, inhibitor activity | inhibition, % (tested at 7.5 µM) | AID 1813; in the data active = inhibition above about 60%; inconclusive = no clear call, values can overlap the other calls;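 also: H4 neuroglioblastoma cells stably carrying SNCA 5'UTR luciferase fusion; 0% = DMSO wells and 100% = positive control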
# IEC-6 tox: IEC-6 cytotoxicity, counter-screen for KLF5 inhibitors. inhibition, % at 5 µM. AID 1825. 290,000 tested, 0.78% active. luminescence viability; in the data active = inhibition above about 22%;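 also: 0% = plate median of test compound wells and 100% = cytotoxic reference compound wells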
# Numbers without * were called inactive; ? = inconclusive; . = no result given; & = joins results of further samples. Some of the compounds tested (hit frequency here may not be typical).
# Sequence of screens: AI-2 QS mod	HSP90 inh	HSF1 inh	HSF-1 act	GSK3A inh	KLF5 inhibitor	GSK3beta inhib	aSyn UTR inh	IEC-6 tox
> Cn1c(=O)c2c(nc(SCCN3CCCCC3)n2Cc2ccc(Cl)cc2)n(C)c1=O
    9	-1	4	3	-2	-19	1	-2	-5
> CN1CCN(CCC=C2c3ccccc3Sc3ccc(S(=O)(=O)N(C)C)cc32)CC1
    .	.	.	.	-3	.	.	.	.
> COc1ccccc1C1/C(=C(/O)c2ccc(OC(C)C)cc2)C(=O)C(=O)N1c1cc(C)on1 (stereo unspecified)
    5	0	2	15	-2	-20	0	14	-3
> N#C/C(=C\c1c(N2CCC(C(N)=O)CC2)nc2ccccn2c1=O)S(=O)(=O)c1ccccc1
    12	6	9	20	-1	-11	-4	-11	-8
> CCn1cc(C(=O)NCC2CCCO2)c(=O)c2cc(F)c(N3CCN(C)CC3)cc21 (stereo unspecified)
    12	3	0	16	.	-3	3	-6	-4
> CC(C)c1ccc(O)c(N)c1
    26	7	-1	11	-3	-8	2	-31	7
> CCOC(=O)CCc1c(C)c(C#N)c2[nH]c3ccccc3n2c1=O
    0	-3	6	26	0	-44	-1	11	2
> COc1ccccc1C(=O)NCC(=O)n1nc(C)cc1C
    26	3	-3	-9	0	-17	-1	-6	8
> COCCNc1oc(-c2ccc(Cl)cc2)nc1C#N
    8	1	22	10	.	-115	6	-162	4
> C=CCn1cnc2c(c1=O)c1nc3ccccc3nc1n2-c1ccc(C)cc1
    -3	5	1	-3	0	-4	-1	10	-4
> Clc1ccccc1CSc1nnc(-c2ccco2)c(-c2ccco2)n1
    19	8	6	9	-5	-4	-4	-28	-5
> Cc1ccc(C2/C(=C(\O)c3cnn(-c4ccccc4)c3C)C(=O)C(=O)N2CCN(C)C)o1 (stereo unspecified)
    0	3	26	66*	-1	-77	6	-92	1
> Cc1nc(NCCCO)c(C#N)c2c1COC(C)(C)C2
    4	0	-3	14	-2	18	-2	5	-8
> Cc1ccc(N(Cc2cc3ccccc3[nH]c2=O)C(=O)c2ccco2)c(C)c1
    14	0	3	8	-11	-12	-3	11	-7
> CCCCNC1=C(Br)C(=O)CC(C)(C)C1
    13	-1	-4	-3	-3	23	-1	4	-2
> CCC(NC(=O)Nc1nnc(C(F)(F)F)s1)(C(F)(F)F)C(F)(F)F
    ?	-1	1	-1	.	-9	2	109*	26*
> COc1ccc([C@H]2CC(=O)c3c(O)cc(O)cc3O2)cc1O
    34	-3	1	1	12	-48	-2	-93	-7
> CSC(=Nc1ccccc1)C1=C(O)COC1=O
    11	0	-2	-2	-1	-32	1	-16	0
> CCC(NC(=O)Nc1cc(OC)c(OC)c(OC)c1)(C(F)(F)F)C(F)(F)F
    -4	-2	3	24	-5	15	-2	-7	1
> CCOC(=O)COc1nc(N(C)C)nc(N(C)C)n1
    8	0	2	-15	-2	-16	2	8	-2
> Cc1ccc(N(CC(O)CN2CCCC2)S(=O)(=O)c2ccc(C)cc2)cc1 (stereo unspecified)
    6	0	-2	-23	0	-10	-5	-21	1
> CCC[C@@H]1C[C@@H](C(=O)NC(C(C)Cl)[C@H]2O[C@H](SC)[C@H](O)[C@@H](O)[C@H]2O)N(C)C1 (stereo partly specified)
    -43	-4	-2	-14	2	-61	2	0	-3
> CC1(C)C2CCC1(C)C(OC(=O)CC(=O)O)C2 (stereo unspecified)
    16	0	6	14	-2	-22	2	-1	2
> CN(C)C(=O)Oc1cccc([N+](C)(C)C)c1
    3	0&0	2	-10	-2	-10&-5	2	13	-3&0
> COc1ccc(C2C(C#N)=C(N)Oc3cc(C)n(CCN4CCOCC4)c(=O)c32)cc1OC (stereo unspecified)
    17	3	-4	-9	2	-21	-4	18	4
> CC1(C)CC(=O)C=C(NCc2ccncc2)C1
    29	1	-8	1	2	2	0	1	-4
> CCc1cc2c(=O)c(-c3nc4ccccc4[nH]3)coc2cc1OC(=O)N1CCOCC1
    10	-1	-2	15	-5	-9	-3	-75	1
> Cc1nc(N2CCOCC2)c(C#N)c2c1COC(C)(C)C2
    20	-2	-7	-8	1	-19	3	1	-1
> O=C(O)CSCC(=O)c1ccccc1
    35	-3	3	9	-1	-24	5	12	3
> COc1ccccc1C1CC(c2ccc(Cl)cc2)Nc2nc(N)nn21 (stereo unspecified)
    13	0	7	1	-3	2	-2	11	0

# Two of the compounds above, with tabs:
compound	AI-2 QS mod	HSP90 inh	HSF1 inh	HSF-1 act	GSK3A inh	KLF5 inhibitor	GSK3beta inhib	aSyn UTR inh	IEC-6 tox
COc1ccccc1C1/C(=C(/O)c2ccc(OC(C)C)cc2)C(=O)C(=O)N1c1cc(C)on1 (stereo unspecified)	5	0	2	15	-2	-20	0	14	-3
N#C/C(=C\c1c(N2CCC(C(N)=O)CC2)nc2ccccn2c1=O)S(=O)(=O)c1ccccc1	12	6	9	20	-1	-11	-4	-11	-8

# Other entries:
# Sequence of screens: AI-2 QS mod	HSP90 inh	HSF1 inh	HSF-1 act	GSK3A inh	KLF5 inhibitor	GSK3beta inhib	aSyn UTR inh	IEC-6 tox
> CCN1C(=O)[C@H]2[C@H]3[C@H](O)[C@H](O)C/C(=N\OC[C@@H](C)[C@H](OCc4ccccc4)C(C)C)[C@@H]3CC[C@H]2C1=O
    30	4	-2	15	-6	2	3	3	6
> CCSc1nnc(N(CCC(=O)O)CCC(=O)O)s1
    28	3	3	9	-1	-13	-3	-11	4
> CCSc1nc(N)c(C#N)c(-c2ccccc2Cl)c1C#N
    19	2	-5	-11	2	-14	0	28	-6
> COc1ccc(Cn2ccnc2)cc1Br
    9	7	-36	-46	0	3	-4	-13	5
> Cn1c(=O)c2c(nc(NCCCO)n2Cc2cccc(C(F)(F)F)c2)n(C)c1=O
    3	0	-4	3	-4	-55	-1	-18	3
> CC(NC(=O)NCc1cccnc1)(C(F)(F)F)C(F)(F)F
    11	1	-4	5	-3	-4	-3	17	-5
> CCOC(=O)CSc1nc(N)c(C(=O)Nc2ccc(N(C)C)cc2)s1
    26	-2	7	25	-3	-12	1	-6	-2
> O=C1CCC(N2C(=O)c3ccccc3C2=O)C(=O)N1 (stereo unspecified)
    12	11	-1	7	-3	9	-1	-7	-2
> C=C1C2(C(=O)Nc3nccs3)CCC(C2)C1(C)C (stereo unspecified)
    20	-1	-41	-52	3	-11	0	8	-4
> c1nc(NC2CCCCC2)c2[nH]cnc2n1
    10	-2	-6	-10	21	2	-12	-37	9
> O=C1OC(=O)C2C1[C@@H]1CC[C@H]2O1 (stereo partly specified)
    11	1	-4	-18	-3	19	0	1	8
> CC(=O)OC1C([N+]2(C)CCCCC2)C[C@H]2C3CC[C@H]4C[C@H](OC(C)=O)C([N+]5(C)CCCCC5)CC4(C)[C@H]3CCC12C (stereo partly specified)
    1	.	-3	3	0	.	4	-11	.
> CCOC(=O)c1c(C)[nH]c(/C(C)=N/O)c1C
    5	-3	-4	12	3	-15	3	-3	2
> COc1ccc(CSC2=NCCN2)cc1Cl
    29	-5	3	8	-3	-13	3	-25	2
> CCOC(=O)C1=C(C)N=C2SC(C)C(=O)N2C1c1ccc(C(=O)OC)cc1 (stereo unspecified)
    5	1	3	-4	-1	6	-1	-9	-1
> Cc1nccn1C[C@@H]1CCc2c(c3ccccc3n2C)C1=O
    20	-1	0	-1	-5	-41	4	1	2
> C[C@]12CC[C@@H]3c4ccc(OS(=O)(=O)O)cc4CC[C@H]3[C@@H]1CCC2=O
    13&21	0	5&0	-3&-16	-4&1&-1	2	-1&0	30&-15	-4
> NC(=O)c1ccccc1
    11	-2	8	-10	4	6	-2	-19	1
> CCC1(C)Cc2c(sc(NC(=O)CCC(=O)O)c2C#N)CO1 (stereo unspecified)
    13	1	-6	2	-2	-13	3	6	-1
> CC(=O)Nc1c(I)c(NC(C)=O)c(I)c(C(=O)O)c1I
    16&10	-1&2	-5&-42	0&-54	-7&-2&-3	-11&-16	0&-1	-14&27	0&-3
> COC(=O)[C@@H](N)Cc1ccc(O)cc1
    2	-2	-5	1	-1	3	-8	-11	9
> COC(=O)c1ccc(C2C(C(=O)c3cc4ccccc4o3)=C(O)C(=O)N2CCCN(C)C)cc1 (stereo unspecified)
    5	1	-2	9	1	-2	2	32	0
> CC/C(=N\O)c1ccc(OC)c(OC)c1
    20	2	-10	-10	-3	-19	2	18	3
> C=CCOc1nc2c(c(=O)n(C)c(=O)n2C)n1Cc1ccccc1Cl
    15	-3	4	24	0	-16	-2	22	-1
> CCCCNC(=O)c1cc2n(n1)C(C(F)(F)F)CC(c1ccccc1)N2 (stereo unspecified)
    23	-2	5	29	-1	-36	3	26	5
> CCOC(=O)CC(=O)CSc1nc2c(cc1C#N)CCCCC2
    2	2	-7	-1	-2	-22	1	-138	2
> CNC(=O)Oc1ccc2c(c1)[C@]1(C)CCN(C)C1N2C (stereo partly specified)
    9	.	1	-7	1&-5	.	5	5	.
> CN(C1CCS(=O)(=O)C1)S(=O)(=O)c1cccc2nsnc12 (stereo unspecified)
    24	0	-8	-28	2	21	1	3	3
> CCOC(=O)c1c(NC(=O)CN2CCOCC2)sc2c1CC(C)(C)OC2
    6	0	-9	-17	-2	-24	0	26	1
> O=C(O)/C=C/c1ccc(Cn2ccnc2)cc1
    15	.	2	-7	-6	.	3	10	.
> c1ccc(N2CCN(c3nc(-c4ccccn4)nc4ccccc34)CC2)cc1
    30	-2	9	41	-1	-34	-1	-78	7
> COC(=O)C1=C(C)N=C2SC(C)C(=O)N2C1/C=C/c1ccccc1OC (stereo unspecified)
    6	2	15	31	-1	-9	-1	-6	0
> COc1cccc(NC(=O)CC2SC(=Nc3ccccc3)NC2=O)c1 (stereo unspecified)
    17	4	-5	11	0	6	0	16	-4
> Cc1cc(C)c(C#N)c(SCC(=O)NC2CC2)n1
    9	2	5	-8	0	-15	1	1	4
> C=CC[C@@H]1C=C[C@H](O/N=C/c2ccc(C(=O)N3[C@H](c4ccc(C)cc4)[C@@H](C)CC[C@H]3C(=O)OC)cc2)[C@@H](CO)O1
    10	2	-2	-10	1	-2	-2	30	-9
> COc1ccc(/C(O)=C2/C(=O)C(=O)N(CCN3CCOCC3)C2c2ccccn2)cc1OC (stereo unspecified)
    19	0	4	10	-2	-73	-4	-3	-1
> O=C(O)CCCCCCC1C(=O)NC(=O)N1CCC(O)C1CCCCC1 (stereo unspecified)
    16	1	-5	-10	-2	-23	-2	24	2
> O=C(NCCCn1ccnc1)c1cccnc1
    30	-2	-5	-8	0	-7	2	-1	-1
> Nc1c2c(nc3ccccc13)N(C1CCCCC1)CC2
    13	.	5	-3	3	.	3	-30	.
> CC(C)Oc1ccc(/C(O)=C2/C(=O)C(=O)N(CCN3CCOCC3)C2c2ccccc2)cc1 (stereo unspecified)
    -1	0	-14	-38	-1	-7	1	-11	-4
> CC1(C)CC(N(Cc2ccco2)C(=O)Cc2ccccc2)CCO1 (stereo unspecified)
    18	1	-1	-3	2	-11	3	-10	-3
> CN(C)c1nc(N(C)C)nc(N(C)C)n1
    12	0	-4	0	-1	-8	-2	-1	1
> CC1CCCC(CC(=O)O)(CC(=O)O)C1 (stereo unspecified)
    18	-3	-3	-20	-4	-21	-3	-2	2
> O=C1CCCN1c1ccc(S(=O)(=O)NCc2ccco2)cc1
    12	-2	-10	-11	3	-8	2	2	1

# Compound activity as filed in PubChem BioAssay.
